Screens (PubChem)
Insulin prom inh: inhibitors of insulin promoter-driven GFP, primary screen, imaging, TRM-6 cells (human fetal islet line), eGFP reporter, cell count; reporter expression induced with tamoxifen; inhibition, % at 2 µM; 130,000 tested, 0.9% active; AID 1273, 2008;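 active = inhibition above the mean plus 3 SD, with well images judged a real hit on visual review, cut at about 60% in these data, passing the limit was not always enough; inconclusive = inhibition over the cutoff but images rejected on review; inactive = inhibition not above the cutoff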
GALR2 agonist: GALR2 receptor agonists, primary screen, cell-based; Galanin receptor type 2 (Homo sapiens), O43603; GALR2-expressing cells, agonist activation read-out; activation, %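 (tested at 5 µM)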; 140,000 tested, 0.48% active; AID 803, 2007;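 active = above mean plus 3 SD of all compounds, about 5% in these data, not always enough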;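 also: 0% = vehicle buffer wells and 100% = reference agonist at full effect; tested in CHO reporter cells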
Target sequence (O43603 whole entry, looked up): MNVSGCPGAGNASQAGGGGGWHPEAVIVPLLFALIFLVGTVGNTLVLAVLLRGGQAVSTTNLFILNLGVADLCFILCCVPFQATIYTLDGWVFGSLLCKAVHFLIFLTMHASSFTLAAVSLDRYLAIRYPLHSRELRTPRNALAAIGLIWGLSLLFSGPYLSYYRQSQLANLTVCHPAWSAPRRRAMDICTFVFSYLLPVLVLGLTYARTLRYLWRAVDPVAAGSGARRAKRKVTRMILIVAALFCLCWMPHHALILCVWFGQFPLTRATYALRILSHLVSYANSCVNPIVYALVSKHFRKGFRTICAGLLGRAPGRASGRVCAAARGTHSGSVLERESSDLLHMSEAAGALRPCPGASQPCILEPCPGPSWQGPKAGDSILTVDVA
PKD1 kinase inh: inhibitors of human PKD1 kinase, biochemical, fluorescence polarization | PKD1 kinase fluorescence polarization assay | Serine/threonine-protein kinase D1 (Homo sapiens), Q15139 | AID 797, 2007 | inhibition, %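 (about 10 µM by stock and volumes)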 | 200,000 tested, 0.056% active;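 active = inhibition of 50% or more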;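 also: controls were vehicle for no effect and a reference inhibitor for full effect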
HSV augment: enhancers of HSV replication in host cells, fold increase, host cell viability; HSV replication augmentation in cells; maximum fold increase; 220,000 tested, 0.005% active; AID 1956, 2009;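 active = peak rise of 1.5-fold or more in the series; inconclusive = self-fluorescent or not available for retest; tested in PC3 cells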;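 also: first round at 10 µM; read as green reporter fluorescence; hits show the peak of a series up to 25 µM; 1 = signal of infected wells without compound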
RGS16-Gao HTS: modulators of RGS16 binding to Galphao, primary screen, biochemical, human proteins, multiplexed bead flow cytometry. Regulator of G-protein signaling 16 (Homo sapiens) + Guanine nucleotide-binding protein …. bead-based flow cytometry RGS16-Galphao binding, fluorescence; actives lie on both sides. binding response (% of control), % at 10 µM. 220,000 tested, 0.38% active;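 active = below 25% or above 175%, edge rows of some plates excepted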;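 also: Galphao activated by GDP with aluminum fluoride before binding; 100% = wells without compound and 0% = beads without RGS; some results beyond the cut were filed as inactive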
Target sequence (O15492 whole entry, looked up): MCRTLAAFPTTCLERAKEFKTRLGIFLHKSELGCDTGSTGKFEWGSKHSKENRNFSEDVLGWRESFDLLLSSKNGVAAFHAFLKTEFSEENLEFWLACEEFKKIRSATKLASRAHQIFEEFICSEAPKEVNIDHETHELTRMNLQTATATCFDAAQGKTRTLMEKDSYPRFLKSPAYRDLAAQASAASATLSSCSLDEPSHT
Target sequence (P09471 whole entry, looked up): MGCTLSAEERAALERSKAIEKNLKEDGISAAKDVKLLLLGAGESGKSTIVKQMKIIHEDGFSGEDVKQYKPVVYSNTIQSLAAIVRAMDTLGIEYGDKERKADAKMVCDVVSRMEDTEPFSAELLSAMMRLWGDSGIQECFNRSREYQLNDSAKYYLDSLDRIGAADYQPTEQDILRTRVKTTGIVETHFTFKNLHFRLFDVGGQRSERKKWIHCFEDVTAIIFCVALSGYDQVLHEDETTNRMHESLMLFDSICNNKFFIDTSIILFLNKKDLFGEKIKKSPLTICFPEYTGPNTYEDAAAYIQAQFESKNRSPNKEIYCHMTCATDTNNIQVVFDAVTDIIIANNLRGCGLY
Insulin prom inh cell count: also measured in Insulin prom inh; calls as there; normalized cell count, %; measured here: cell count, toxicity; reference of the scale not given here;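 cells exposed to compound for 48 h; stained nuclei by imaging scaled within each plate; lower means fewer cells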
HSV augment primary fold: second read-out of HSV augment, no call of its own (marks repeat the call); fold increase; compound at 10 µM; measured here: primary screen fold increase 10 uM; tested in PC3 cells;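 GFP signal in the first replicate; 1 = infected wells without compound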
An asterisk follows results filed as active; i = inactive; ? = inconclusive; / = no result given. Random draw from the library, and some 1.3% of all compounds hit somewhere here.

SMILES	Insulin prom inh	Insulin prom inh cell count	GALR2 agonist	PKD1 kinase inh	HSV augment	HSV augment primary fold	RGS16-Gao HTS
Cc1ccc(C(=O)Nc2ccc(N3CCN(C)CC3)nc2)cc1	36.4	155.0	/	2.5	i	0.92	114.0
CC(=NCCN1CCOCC1)C1=C(O)c2ccccc2C1=O	3.0	96.7	-1.1	-13.3	i	0.94	100.6
CC1CCc2c(sc3ncnc(NCCCOC(C)C)c23)C1 (centres undefined)	15.5	136.4	-0.9	-5.3	i	0.86	97.8
CC(=O)c1ccc(S(=O)(=O)Nc2cccc(-c3ccc4nncn4n3)c2)cc1	/	/	/	-9.5	i	1.02	106.4
CCN(CC)C(=O)Cn1ccc(NC(C)=O)nc1=O	/	/	/	/	i	0.92	97.3
Nc1c(N=Nc2ccccc2F)c(=O)[nH]n1-c1ccccc1	-19.5	188.3	-0.4	-16.2	i	1.01	100.2
Cc1cccc(N2CCN(C(=O)C3CCN(S(=O)(=O)c4c(C)noc4C)CC3)CC2C)c1 (centres undefined)	-107.4	99.2	/	-6.8	i	1.1	98.2
Cc1nn(C)c(Sc2ccccc2N)c1[N+](=O)[O-]	/	/	/	-4.5	i	0.9	98.0
Cc1sc(NC(=O)c2ccccc2)c(C(c2ccc(Cl)cc2)N2CCN(CCO)CC2)c1C (centres undefined)	0.0	70.4	-1.4	-5.5	i	0.91	104.0
CCC(NC(=O)c1ccc(C#CC2(O)CCCCC2)cc1)C(=O)O (centres undefined)	/	/	/	4.3	i	1.01	94.7
Cc1cc(C(=O)N2CCN(c3ncccn3)CC2)cs1	-62.5	98.3	-2.1	-2.9	i	1.02	101.4
CCOC(=O)c1cccc(NC(=O)c2ccc(N(C)C)cc2)c1	7.4	98.0	-0.7	8.8	i	0.84	86.8
Cc1cccc(C)c1NC(=O)c1cc2c(=O)c3ccccc3oc2nc1C(F)(F)F	/	/	-0.5	-1.5	i	1.06	100.2
O=C(O)c1cc2cc(OCc3ccccc3)ccc2[nH]1	/	/	-2.0	-11.5	i	0.94	98.7
COCc1nnc(SCC(=O)Nc2cccc(Cl)c2C)n1-c1ccccc1	/	/	-0.2	2.7	i	0.93	103.2
Cc1nn(CC(=O)O)c(C)c1C	30.0	102.5	-2.1	-1.6	i	1	101.2
CCOC(=O)c1sc(NC(=O)c2ccc(OC)cc2)nc1C	33.3	168.3	/	5.3	i	0.87	102.9
O=C(Nc1ccc(O)cc1)C1CC=CCC1 (centres undefined)	/	/	-0.7	9.2	i	0.74	90.8
Cc1onc(-c2c(Cl)cccc2Cl)c1C(=O)NCCCN1CCOCC1	33.3	84.6	-1.6	-0.3	i	0.983	103.5
Cc1ccc(C(=O)Nc2ccc(S(=O)(=O)N3CCc4ccccc43)cc2)o1	30.8	86.1	-0.3	2.9	i	1.03	94.6
COc1ccc(CNCCC2(Cc3ccccc3)CC(C)N(C)CC2C)cc1OC (centres undefined)	/	/	/	-3.5	i	0.94	102.0
CCn1cc([N+](=O)[O-])c(C(=O)Nc2ccc3c(c2)OCCO3)n1	/	/	-2.8	5.4	i	0.86	94.6
C=CCSc1nnc(-c2cc3c(-c4ccccc4)nn(C)c3s2)n1C	-14.3	85.1	0.9	-2.6	i	0.91	143.1
C=CCn1nc(-c2ccccc2)c2c(C)onc2c1=O	-58.1	85.2	/	-11.1	i	1.13	99.0
CC1CCN(c2nc3c(c(=O)n(C)c(=O)n3C)n2Cc2ccccc2)CC1	-13.5	175.4	-1.4	-6.6	i	0.81	103.6
The listing continues:
SMILES	Insulin prom inh	Insulin prom inh cell count	GALR2 agonist	PKD1 kinase inh	HSV augment	HSV augment primary fold	RGS16-Gao HTS
CC1(C)CC(=O)C=C(C(=O)N2CCCC(C(=O)c3cccc(Cl)c3)C2)O1 (centres undefined)	/	/	/	-4.2	i	0.88	104.9
CC(C)[n+]1ccn(C2=C([O-])c3ccccc3C(=O)/C2=N\S(=O)(=O)c2ccccc2)c1	/	/	/	/	i	0.65	107.5
CN1CCN(c2nc3c(c(=O)[nH]c(=O)n3C)n2CCSc2nc3ccccc3s2)CC1	/	/	-1.3	-8.6	i	0.83	94.0
S=C(NCCN1CCCCC1)Nc1ccc(Br)cc1	/	/	/	/	i	0.88	105.2
CC1CCN(Cc2c(C(=O)O)nnn2-c2nonc2N)CC1	/	/	/	5.0	i	0.89	98.5
O=C(Nc1ccccc1)c1ccsc1	-20.0	95.3	0.5	5.5	i	1.09	108.0
O=C(NNC(=S)Nc1ccc(Cl)c(Cl)c1)c1cccc([N+](=O)[O-])c1	/	/	/	/	i	0.92	98.8
COCCNC(=O)C(C)N(c1ccc(Oc2ccccc2)cc1)S(C)(=O)=O (centres undefined)	8.1	140.0	-0.9	-2.5	i	0.95	87.8
COc1ccc(C2C=C(c3ccc(Br)cc3)Nc3nc(N4C(=O)CCC4=O)nn32)cc1 (centres undefined)	-21.2	77.2	-2.0	5.4	?	/	95.9
Cc1nn(-c2ccc(F)cc2)c(Cl)c1/C=C/C(=O)OCC(=O)Nc1c(F)c(F)c(F)c(F)c1F	28.6	120.5	-1.3	-0.4	i	0.68	105.0
O=C(Nc1nnc(C2CC2)s1)C1Cc2ccccc2CN1S(=O)(=O)c1cccs1 (centres undefined)	6.1	87.2	-0.5	-3.0	i	0.94	94.5
COc1ccc(OC)c(C2=NO[C@@H]3C(=O)N(c4cc(Cl)ccc4OC)C(=O)[C@H]23)c1	-20.0	75.0	-2.3	-23.2	i	0.94	105.7
Cc1ccccc1S(=O)(=O)c1cc2ccccc2nc1N	/	/	/	6.4	i	0.87	98.2
CCCC(=O)Nc1ccc(NC(=O)C2CC2)cn1	-43.2	98.6	-1.7	-1.5	/	/	100.6
CCOc1ccc2nc(SCCNS(=O)(=O)c3ccccc3)sc2c1	15.4	137.9	0.1	3.3	/	/	112.1
CCOC(=O)C1=C(C)N(C)C(C)=C(C(=O)OCC)C1c1cccnc1	50.0	83.6	-1.7	5.7	i	0.98	99.4
N#CC(c1ccc(Cl)cc1)c1ccc(Cl)nn1 (centres undefined)	15.6	98.1	-3.0	-4.2	i	1.07	116.8
COc1ccc(S(=O)(=O)N(C)C)cc1NC(=O)Cc1c[nH]c2ccccc12	-18.2	98.7	/	-5.2	i	0.99	104.6
CC1CCCN(c2ccc(C(=O)Nc3cccnc3)cc2[N+](=O)[O-])C1 (centres undefined)	/	/	/	-5.7	i	0.77	99.5
CCOC(=O)C(=O)c1csc(NC(=O)CCSc2ccc(C)cc2)n1	9.1	61.8	/	0.0	i	1.01	99.9
COCCNC(=S)NN=C1CCC(c2ccccc2)CC1 (centres undefined)	/	/	/	-3.7	i	0.86	116.2
O=c1c2ccccc2c2ccccc2c(=O)n1CC1CCCO1 (centres undefined)	-17.1	116.7	-2.2	6.5	i	0.77	193.5
O=C(Cn1c(=O)oc2ccccc21)Nc1ccc2c(c1)OCCO2	-59.1	108.2	-2.9	-4.2	i	1.01	102.0
O=C(OCC(=O)c1ccc[nH]1)c1ccccc1	29.4	95.5	/	-10.5	i	0.97	100.8
COc1cccc(CNC(=O)c2ccc(CS(=O)(=O)Cc3ccc(C)cc3)o2)c1	-53.3	83.7	/	-5.1	i	0.9	103.0
The list continues:
SMILES	Insulin prom inh	Insulin prom inh cell count	GALR2 agonist	PKD1 kinase inh	HSV augment	HSV augment primary fold	RGS16-Gao HTS
O=C(CCn1cnc2ncccc2c1=O)N1CCN(c2cccc(Cl)c2)CC1	/	/	/	/	i	0.98	93.9
CN(c1ccccc1)S(=O)(=O)c1cccc(NC(=O)COC(=O)C2CCCCC2)c1	/	/	/	/	i	0.83	97.3
Cc1ccc(C)c(CSc2nnc([C@@H]3CCCN3)o2)c1	/	/	/	/	i	0.99	101.6
CCOCCn1c(CN(Cc2ccccc2)Cc2ccccc2)nc2c1c(=O)n(C)c(=O)n2C	/	/	-1.0	0.8	i	1.05	97.4
O=C(CN1CCOCC1)N1CCc2ccccc2C(c2ccccc2)C1 (centres undefined)	-12.9	58.9	-2.3	-12.8	i	0.93	i
COc1ccc(C(C(=O)NCC2CCCO2)N(C(=O)CNC(=O)c2cccs2)c2ccc(C)cc2)cc1OC (centres undefined)	/	/	/	1.1	i	1.06	99.5
COc1ccc(S(=O)(=O)N(CC(=O)N2CCN(C)CC2)c2ccccc2)cc1OC	-81.8	47.8	-1.4	7.2	i	1.01	101.1
COc1ccc(/C=N/NC(=O)CO/N=C(\C)c2cccs2)cc1	21.6	87.2	-3.3	-5.9	i	0.9	95.8
O=C1CSC(=Nc2cccc(Cl)c2Cl)N1Cc1cccnc1	/	/	/	/	i	0.92	101.3
COc1ccccc1OCCSc1nnnn1-c1ccc(C)cc1	/	/	/	0.9	i	0.79	108.0
Cc1ccc(P(=O)(CC(=O)O)c2ccc(C)cc2)cc1	/	/	-2.2	-1.2	i	0.95	96.5
C=CCN(c1ccccc1Cl)S(=O)(=O)c1cccc(C(=O)NCCc2ccc(OC)cc2)c1	/	/	0.5	-4.1	i	0.84	110.0
CCCOc1ccc(C2C(C(=O)c3ccc(C)o3)=C(O)C(=O)N2Cc2cccnc2)cc1 (centres undefined)	-66.7	87.7	-1.0	-1.5	i	0.84	102.4
CC(C)C1C(C#N)=C(N)Oc2n[nH]c(-c3ccccc3)c21 (centres undefined)	35.7	125.3	-0.3	-2.6	i	1	109.8
CCn1c(SCC(N)=O)nc2sc3c(c2c1=O)CCCC3	64.3	124.8	-0.9	-7.2	i	0.99	100.8
Cc1csc2c(=O)n3c(nc12)CCCCC3	/	/	-0.7	1.2	i	0.99	99.6
Cc1ccc(CNC(=O)c2nn(C)c(C)c2[N+](=O)[O-])cc1	23.1	70.2	1.1	-14.0	i	0.81	109.2
Cc1c(NC(=O)C2CCN(S(=O)(=O)c3ccc(Cl)cc3)CC2)c(=O)n(-c2ccccc2)n1C	10.8	233.5	-2.8	-6.7	i	0.94	91.7
CCOc1ccc(NC(=O)CSc2nnnn2CC(=O)O)cc1	22.2	164.5	-0.6	2.1	i	1.03	97.5

A section taken from the entries so far, as a working copy:
SMILES	Insulin prom inh	Insulin prom inh cell count	GALR2 agonist	PKD1 kinase inh	HSV augment	HSV augment primary fold	RGS16-Gao HTS
O=C(NNC(=S)Nc1ccc(Cl)c(Cl)c1)c1cccc([N+](=O)[O-])c1	/	/	/	/	i	0.92	98.8
COCCNC(=O)C(C)N(c1ccc(Oc2ccccc2)cc1)S(C)(=O)=O (centres undefined)	8.1	140.0	-0.9	-2.5	i	0.95	87.8
COc1ccc(C2C=C(c3ccc(Br)cc3)Nc3nc(N4C(=O)CCC4=O)nn32)cc1 (centres undefined)	-21.2	77.2	-2.0	5.4	?	/	95.9
Cc1nn(-c2ccc(F)cc2)c(Cl)c1/C=C/C(=O)OCC(=O)Nc1c(F)c(F)c(F)c(F)c1F	28.6	120.5	-1.3	-0.4	i	0.68	105.0
O=C(Nc1nnc(C2CC2)s1)C1Cc2ccccc2CN1S(=O)(=O)c1cccs1 (centres undefined)	6.1	87.2	-0.5	-3.0	i	0.94	94.5
COc1ccc(OC)c(C2=NO[C@@H]3C(=O)N(c4cc(Cl)ccc4OC)C(=O)[C@H]23)c1	-20.0	75.0	-2.3	-23.2	i	0.94	105.7
Cc1ccccc1S(=O)(=O)c1cc2ccccc2nc1N	/	/	/	6.4	i	0.87	98.2
CCCC(=O)Nc1ccc(NC(=O)C2CC2)cn1	-43.2	98.6	-1.7	-1.5	/	/	100.6
CCOc1ccc2nc(SCCNS(=O)(=O)c3ccccc3)sc2c1	15.4	137.9	0.1	3.3	/	/	112.1
CCOC(=O)C1=C(C)N(C)C(C)=C(C(=O)OCC)C1c1cccnc1	50.0	83.6	-1.7	5.7	i	0.98	99.4
N#CC(c1ccc(Cl)cc1)c1ccc(Cl)nn1 (centres undefined)	15.6	98.1	-3.0	-4.2	i	1.07	116.8
COc1ccc(S(=O)(=O)N(C)C)cc1NC(=O)Cc1c[nH]c2ccccc12	-18.2	98.7	/	-5.2	i	0.99	104.6
CC1CCCN(c2ccc(C(=O)Nc3cccnc3)cc2[N+](=O)[O-])C1 (centres undefined)	/	/	/	-5.7	i	0.77	99.5
CCOC(=O)C(=O)c1csc(NC(=O)CCSc2ccc(C)cc2)n1	9.1	61.8	/	0.0	i	1.01	99.9
COCCNC(=S)NN=C1CCC(c2ccccc2)CC1 (centres undefined)	/	/	/	-3.7	i	0.86	116.2
O=c1c2ccccc2c2ccccc2c(=O)n1CC1CCCO1 (centres undefined)	-17.1	116.7	-2.2	6.5	i	0.77	193.5
